RanGTP-Imp inh – disruptors of Ran-importin-beta complex formation – biochemical, FRET, CFP-Ran, YFP-importin-beta, homogeneous, primary screen | cell-free CFP-Ran/YFP-importin-beta FRET ratio | inhibition, % (test concentration not listed) | 300,000 compounds, 1.1% hits | AID 2216;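 active means most replicates above 15%; inconclusive means exactly half above 15%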;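 further: 0% = DMSO wells and 100% = Ran loaded with GDP instead of GTP; wells of about 40 µL received 100 nL stock; the first replicate is given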
Vif TR-FRET – HIV-1 Vif–A3G interaction blockers – biochemical, TR-FRET, GST-Vif 1-94, biotin-A3G peptide, dose response retest, primary screen (AID 1117319); TR-FRET GST-Vif / biotin-A3G peptide binding; higher % means a stronger effect; test concentration not given here; strong numbers were not always called active; inhibition, %, or IC50 in µM where a hit was titrated; 260,000 compounds, 0.57% hits;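 active means above the screen mean plus three standard deviations and confirmed in dose response; inconclusive means results disagree or hit not tested in dose response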;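 further: Vif residues 1-94 fused to GST binding biotinylated APOBEC3G peptide 110-148; 0% = full assay without inhibitor and 100% = GST in place of GST-Vif; retest series ran down from 100 µM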
UCH37 inh – human UCH37 deubiquitinating enzyme inhibition. purified proteasome/UCH37, Ub-AMC cleavage fluorescence. Q9Y5K5. inhibition, % (no concentration beside the values). 330,000 compounds, 0.33% hits;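 active means mean of two replicates above 20%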;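 further: 0% = compound-free wells with enzyme and 100% = wells lacking proteasome; stock transfer was 100 nL into about 20 µL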
Target sequence (Q9Y5K5 whole entry, looked up): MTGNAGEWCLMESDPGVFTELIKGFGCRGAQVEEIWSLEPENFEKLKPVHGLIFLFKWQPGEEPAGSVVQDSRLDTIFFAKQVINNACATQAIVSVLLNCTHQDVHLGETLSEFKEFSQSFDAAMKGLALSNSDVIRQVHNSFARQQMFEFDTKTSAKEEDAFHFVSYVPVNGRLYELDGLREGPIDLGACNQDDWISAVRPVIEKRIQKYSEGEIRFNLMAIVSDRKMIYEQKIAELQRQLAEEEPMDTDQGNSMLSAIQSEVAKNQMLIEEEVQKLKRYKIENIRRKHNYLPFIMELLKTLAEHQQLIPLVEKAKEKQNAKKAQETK
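system = Proteasome-associated human UCH37 deubiquitinase | amount = 0.15 nM proteasome as dispensed | medium = pH 7.4 Tris-HCl (50 mM) with ovalbumin, ATP-MgCl2, DTT | incubation = 30 min preincubation with enzyme, 25 min cleavage at room temperature | detection = AMC fluorescence 355/460 nm | read-out basis = percent inhibition | controls = no-proteasome and no-compound wells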
E coli growth – blocks Escherichia coli growth; OD600, 23 h; hits give low values; OD600 absorbance (concentration not given with the values); 330,000 compounds, 0.21% hits;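 active means OD600 absorbance below the run mean of sample wells minus 3.6 SD, in any replicate, cut at about 0.56 in these data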;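 further: stock transfer was 300 nL into about 60 µL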
MLL AF4-AF9 inh – inhibitors of human MLL-AF4/AF9 interaction. 350,000 compounds, 0.47% hits. AID 651704. AlphaScreen, biotin-AF4 peptide binding to FLAG-AF9. inhibition, % at 10 µM. P42568;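 active means every replicate reaching a set inhibition limit, whatever the replicate mean, cut at about 25% in these data; inconclusive means mean inhibition reaches that limit but some replicates miss it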;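 further: 0% = plate neutral control median and 100% = total signal loss; the record names both 10 and 1 µM as test concentration; the first replicate is given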
Target sequence (P42568 whole entry, looked up): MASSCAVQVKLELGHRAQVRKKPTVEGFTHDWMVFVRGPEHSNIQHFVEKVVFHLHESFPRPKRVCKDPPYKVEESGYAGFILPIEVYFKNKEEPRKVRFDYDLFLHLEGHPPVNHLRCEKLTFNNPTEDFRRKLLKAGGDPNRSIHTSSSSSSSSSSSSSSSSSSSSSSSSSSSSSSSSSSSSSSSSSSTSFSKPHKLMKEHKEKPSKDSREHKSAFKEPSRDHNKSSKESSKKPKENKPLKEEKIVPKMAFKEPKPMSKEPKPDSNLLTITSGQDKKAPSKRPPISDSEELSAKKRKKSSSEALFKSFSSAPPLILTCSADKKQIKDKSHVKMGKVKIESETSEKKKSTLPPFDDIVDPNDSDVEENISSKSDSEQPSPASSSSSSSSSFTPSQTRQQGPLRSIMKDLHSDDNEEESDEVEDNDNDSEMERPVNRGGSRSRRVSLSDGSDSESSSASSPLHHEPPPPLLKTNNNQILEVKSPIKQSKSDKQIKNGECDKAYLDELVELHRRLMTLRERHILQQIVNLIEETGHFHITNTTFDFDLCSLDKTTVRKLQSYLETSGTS
FGF22 binding – shifts melting point of recombinant human FGF22; recombinant FGF22 thermal shift, SYPRO orange fluorescence; percent of sucrose octasulfate shift, DMSO zero; Q9HCT0; AID 651658; 340,000 compounds, 1.5% hits; calls only at 9.99 µM;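 active means melting point raised past a set limit in the mean and every replicate; inconclusive means no clear call; three in four hits are not shown here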
Target sequence (Q9HCT0 whole entry, looked up): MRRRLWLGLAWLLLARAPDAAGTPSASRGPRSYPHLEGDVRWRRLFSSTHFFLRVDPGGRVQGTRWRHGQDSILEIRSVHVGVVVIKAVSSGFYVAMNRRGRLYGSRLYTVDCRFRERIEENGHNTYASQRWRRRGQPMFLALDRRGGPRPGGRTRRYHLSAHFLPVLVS
HNF4A DNA FP – change in binding of human HNF4 alpha to DNA; 360,000 compounds, 0.3% hits; HNF4a-FITC DNA binding, fluorescence polarization, 1 h; activity change, % at 10 µM; in the data active means activity change above about 30%, passing the limit was not always enough;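 further: controls were the assay level and a saturating level of protein; the project sought stronger binding though the title names inhibitors; some compounds called inactive have numbers as strong as hits; positive values seem to mean higher polarization but the record does not say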
An asterisk follows results filed as active; i = inactive; ? = inconclusive; . = no result given; & = joins results of further samples. Some of the compounds tested; the hit share may differ from the screen's.

Screens in order – RanGTP-Imp inh	Vif TR-FRET	UCH37 inh	E coli growth	MLL AF4-AF9 inh	FGF22 binding	HNF4A DNA FP
> COc1ccc(N2C(=O)CCC(C(=O)Nc3ccccn3)C2c2ccc(OC)c(OC)c2)cc1 (stereo unspecified)
    4.5	-3%	2.8	0.71	.	.	-0.5
> O=C(NCc1cccc(Cl)c1)c1ccc(CS(=O)Cc2ccc(Cl)cc2)o1 (stereo unspecified)
    -2.9	.	2.3	0.6	0.6	i	0.1
> Cc1cccc(-c2nc(CS(=O)CC(=O)NCc3ccco3)c(C)o2)c1 (stereo unspecified)
    ?	-6%	1.2	0.68	0.2	i	12
> CCOC(=O)/C=C/C(=O)OCC(=O)Nc1ccc(Cl)cn1
    -1.8	?	-1.1	.	.	.	-0.6
> N#Cc1c(CSCC(=O)O)cc(=O)n2c1[nH]c1ccccc12
    -11	15%	0.0	0.69	-0.3	i	-3.8
> CCn1c2c(c3ccc(OC)cc31)CCCC2=O
    4.5	5%	-0.3	0.64	.	.	1.3
> COc1ccc(C)cc1NC(=O)NNS(=O)(=O)c1ccc(NC(C)=O)cc1
    0.0	.	1.3	0.72	0.3	i	4.5
> C=CCC(=O)NC1CC(C)(C)Cc2c1cnn2-c1ccc(C)cc1 (stereo unspecified)
    3.3	.	5.7	0.69	-4.0	i	3.2
> CN1CCOC1c1ccc(C2OCCN2C)cc1 (stereo unspecified)
    .	29%	2.9	0.68	0.0	i	3.7
> COc1ccc(NC(=O)CSCC(=O)Oc2c(OC)cccc2OC)cc1
    -2.0	4%	4.9	0.69	-3.3	i	-0.6
> Cc1ccc(C2(C(F)(F)F)N=C3Sc4cc(C)cc(C)c4N3C(=O)N2)cc1 (stereo unspecified)
    4.3	6%	-1.8	0.68	.	.	1.6
> COC(=O)Cn1c(=NC(=O)c2ccc(OC)cc2)sc2cc(OC)ccc21
    ?	-80%	-199	0.71	-1.4	i	0.4
> Cc1ccc(S(=O)(=O)N2CCC(C(=O)OCCOc3ccccc3)CC2)cc1C
    4.3	1%	2.2	0.69	-1.9	i	1.0
> COc1ccc(CCNC(=O)CN2C(=O)NC(Cc3c[nH]c4ccccc34)C2=O)cc1 (stereo unspecified)
    3.3	-2%	1.8	0.69	-1.5	i	-1.7
> O=C(NCCCCNC(=O)c1ccc(Cl)s1)c1ccc(Cl)s1
    0.2	-19%	2.1	0.71	.	.	0.6
> S=C(NCC1CCCO1)N1CCN(Cc2ccccc2Cl)CC1 (stereo unspecified)
    2.2	5%	0.0	0.63	-0.1	i	-0.4
> COc1cccc(C(C)(O)c2nc(-c3cncnc3)cs2)c1 (stereo unspecified)
    .	.	.	.	-5.2	i	-4.3
> CC(NC(=O)/C=C/c1ccco1)c1nc2ccccc2n1Cc1ccccc1F (stereo unspecified)
    -5.9	29%	2.8	0.72	.	.	3.3
> Cc1ccc(S(=O)(=O)N(C)c2ccc3sc(C)nc3c2)cc1
    1.3	.	2.8	0.69	-2.6	i	3.9
> CC(C)NC(=S)N=Nc1c(O)[nH]c2ccc(C(C)C)cc12
    -4.1	7%	4.4	0.65	-4.6	i	0.5
> COCCOC(=O)C1=C(C)NC(=O)NC1c1ccc(-c2cc(Cl)ccc2Cl)o1 (stereo unspecified)
    -0.6	.	-9.9	0.66	-0.6	i	16
> COc1ccc(CCn2cnc3c([nH]c4ccccc43)c2=O)cc1
    0.2	-6%	0.7	0.7	4.9	i	5.5
> O=C(NC1CCN(Cc2ccccc2)CC1)c1ccccc1OCc1ccccc1
    -0.8	-4%	1.3	0.63	1.8	i	5.4
> COc1cccc(NC(=O)c2cnc(SC)nc2C)c1
    -0.6	7%	3.6	0.68	-7.4	i	0.5
> COc1ccc(/C(C)=N/NC(=O)C2CC2)cc1
    -0.8	16%	.	.	-0.5	i	3.3
> CCOc1cc(CNCCc2ccc(S(N)(=O)=O)cc2)ccc1OCC(=O)NC1CCCCC1
    -2.2	-1%	0.0	0.81	.	.	-3.0
> CC(C)Oc1ccc(CNC(=O)c2ccc3nc(N4CCOCC4)sc3c2)cc1
    -0.1	.	2.8	0.75	-2.0	i	1.0
> CCC(C)(C)C1CCC2(CC1)NC(=O)N(CC(=O)N(C)CCOc1ccc(Cl)cc1)C2=O (stereo unspecified)
    .	-5%	1.4	0.66	-2.1	i	-1.6
> OC(COCc1ccc(Cl)cc1)CN1CCN(CC(O)COCc2ccc(Cl)cc2)CC1 (stereo unspecified)
    -1.7	-1%&-5%	5.5	0.65	.	.	-1.0
> COc1cccc(C(=O)NNC(=O)c2cccc(F)c2)c1
    -3.7	-2%	5.0	0.63	-0.8	i	-2.8
> N#Cc1ccc(C23OCCN2CCn2nc4ccccc4c23)cc1 (stereo unspecified)
    .	11%	3.4	0.68	-0.4	.	-3.4
> CN(C)S(=O)(=O)N1CCC(Oc2cccc(C(=O)NC3CCOC3)c2)CC1 (stereo unspecified)
    -2.1	5%	1.8	0.71	-1.2	i	5.6
> CC1(C)C(=O)Nc2ccccc2N1C(=O)COC(=O)c1ccc(NC(N)=O)cc1
    .	7%	3.4	0.69	1.1	i	0.5
> O=C(COC(=O)/C=C/c1ccc([N+](=O)[O-])cc1)NCc1ccccc1
    4.7	10%	5.6	0.68	2.8	i	4.0
> Cc1ccc(S(=O)(=O)N(CCCN(C)C)Cc2ccc3c(c2)OCO3)cc1
    -1.4	-5%	3.1	0.62	1.9	i	0.2
> CCC(C)[C@H](NC(=O)NCc1ccc(OC)c(OC)c1)C(=O)O (stereo partly specified)
    1.6	?	0.6	0.68	0.7	i	0.8
> O=C1CC2(CON=C2c2ccc(F)cc2)C(=O)N1c1ccc(F)cc1 (stereo unspecified)
    -4.7	3%	0.2	0.68	.	.	-0.2
> CCOC(=O)c1cnc(SC)nc1Sc1ccccc1Cl
    -1.0	4%	2.8	0.72	.	.	0.5
> Cc1cc(/C=C2\SC(=O)NC2=O)c(C)n1-c1ccc(N(C)C)cc1
    -1.2	.	1.8	0.61	-4.6	i	0.7
> O=C(Nc1ccc(N2CCOCC2)cc1N1CCOCC1)c1ccc([N+](=O)[O-])cc1Cl
    -0.2	.	3.9	0.72	3.2	i	5.1
> CCOc1ccc(CCNC(=O)CSC(=S)N2CCCC2)cc1OCC
    -2.2	.	.	.	-2.2	i	0.2
> O=C(CC1SCCNC1=O)Nc1cc(Cl)cc(Cl)c1 (stereo unspecified)
    1.0	5%	.	0.71	.	.	-0.8
> COc1ccc(NC(=O)CN(C)C(=O)C2CSC3(C)CCC(=O)N23)cc1 (stereo unspecified)
    .	16%	0.2	0.69	1.3	i	4.4
> Oc1ccc(-c2nnc(-c3ccc(O)cc3)nn2)cc1
    -3.0	-3%	5.7	0.7	.	.	4.8
> COc1ccc(OC)c(CNc2ccc(F)c(Cl)c2)c1
    5.2	12%	1.7	0.64	8.0	i	-2.4
> Nc1ccc(Cl)c(-c2nc3ncccc3o2)c1
    1.4	4%	0.3	0.64	.	.	1.0
> CCOC(=O)c1nn(-c2ccccc2C)c(=O)cc1OCC(=O)Nc1cccc(OC)c1
    4.7	.	.	.	-39	i	0.7
> O=C(O)c1ccccc1NCc1ccco1
    1.2	6%	-85	0.66	0.3	i	-2.6
> Cc1cc(C(=O)CCl)c(C)n1CCc1ccccc1
    4.1	26%	5.7	0.67	-0.1	i	.
> CCOc1cccc(C(=O)Nc2ccc(N(CC)CC)cc2)c1
    -2.9	10%	2.5	0.65	.	.	0.7

Going on with the list:
Screens in order – RanGTP-Imp inh	Vif TR-FRET	UCH37 inh	E coli growth	MLL AF4-AF9 inh	FGF22 binding	HNF4A DNA FP
> CCCCNC(=O)c1cn(CC)c2ccc(S(=O)(=O)N3CCCC3)cc2c1=O
    5.3	.	5.0	0.67	1.5	i	4.3
> Cc1cc(C)cc(NC(=O)NCC2CCN(Cc3cc(C)ccc3C)CC2)c1
    5.8	.	2.4	0.65	5.9	i	-3.5
> COC(=O)C(C)n1nc(C)n(-c2ccc(C)cc2)c1=O (stereo unspecified)
    2.3	?	0.8	0.7	.	.	4.0
> S=C(Nc1cccc(Cl)c1)NC1CCCCC1
    5.1	>100µM*	4.0	0.64	.	.	3.2
> Cc1nc(NC(=O)c2ccco2)sc1C(=O)Nc1ccc(Br)cc1
    -1.6	-2%	-0.4	0.6	.	.	-0.2
> CC(C)Cn1c(SCC#N)nc2ccccc2c1=O
    -5.0	-1%	1.6	0.7	.	.	0.5
> COc1cccc(N(C(=O)CNC(=O)c2ccco2)C(C(=O)NC2CCCCC2)c2ccncc2)c1 (stereo unspecified)
    -1.3	-4%	4.6	0.71	.	.	0.8
> CCOC(=O)c1c(C)[nH]c(C(=O)COC(=O)C2CC(=O)N(Cc3ccccc3)C2)c1C (stereo unspecified)
    0.7	2%	3.7	0.71	.	.	0.7
> CCOc1ccc2nc(Cl)c(C3CC(c4ccccc4)=NN3C(=O)c3ccco3)cc2c1 (stereo unspecified)
    -0.4	16%	1.7	0.68	.	.	.
> CCCNC(=O)c1c[nH]c2ccc(S(=O)(=O)N(C)c3ccc(OCC)cc3)cc2c1=O
    1.2	25%	-2.6	0.7	.	.	.

Just MLL AF4-AF9 inh and UCH37 inh, for 3 of the compounds above:
| compound | MLL AF4-AF9 inh | UCH37 inh |
| --- | --- | --- |
| S=C(Nc1cccc(Cl)c1)NC1CCCCC1 | . | 4.0 |
| Cc1nc(NC(=O)c2ccco2)sc1C(=O)Nc1ccc(Br)cc1 | . | -0.4 |
| Cc1cc(C)cc(NC(=O)NCC2CCN(Cc3cc(C)ccc3C)CC2)c1 | 5.9 | 2.4 |

Next part.
Screens in order – RanGTP-Imp inh	Vif TR-FRET	UCH37 inh	E coli growth	MLL AF4-AF9 inh	FGF22 binding	HNF4A DNA FP
> Cc1cc(NC(=O)CSCC(=O)Nc2cc(C(F)(F)F)ccc2N2CCCCC2)no1
    .	.	1.3	0.7	?	i	3.7
> CCOC(=O)c1ccc(CS(=O)c2ccc(Cl)cc2)o1 (stereo unspecified)
    3.7	-5%	-0.7	0.7	.	.	0.2
> CCN(CC)c1ncnnc1-c1ccccc1
    -3.5	-3%	2.1	0.65	-32	i	2.5
> O=C1C2CC=CCC2C(=O)N1c1ccc(NCCc2ccccc2F)c([N+](=O)[O-])c1 (stereo unspecified)
    4.5	.	4.5	0.68	7.0	i	-0.5
> COc1ccc(Nc2nc3nonc3nc2N2CCCCC2)cc1
    3.6	30%	6.4	0.66	6.2	i	3.0
> CCC(C)(C)NC(=O)C(c1ccccc1F)N(C(=O)c1ccn[nH]1)c1ccccc1 (stereo unspecified)
    -3.1	-9%	1.5	0.74	.	.	-1.6
> Cc1cccc(N(CC(=O)Nc2cccnc2)S(C)(=O)=O)c1
    -0.1	-1%	4.3	0.7	-5.7	i	0.8
> COc1ccccc1C(OC(=O)c1cccs1)C(=O)NCC1CCCO1 (stereo unspecified)
    3.9	5%	7.2	0.66	.	.	1.2
> Cc1ccc(S(=O)(=O)Nc2ccccc2F)cc1C(=O)NCCCN1CCCC1=O
    1.4	-2%	2.4	0.7	.	.	1.9
> c1ccc(CCNc2cnccn2)cc1
    2.4	1%	-425	0.63	-1.0	i	2.9
> O=C(COC(=O)c1ccc[nH]c1=O)Nc1cc(S(=O)(=O)N2CCCCCC2)ccc1Cl
    .	-4%	3.4	0.69	-0.2	i	1.1
> Cc1ccc(NC(=S)N2CCC(NC(=O)c3ccc(F)cc3)CC2)cc1C
    0.0	-11%	4.5	0.69	-1.7	i	5.1
> COc1ccc(NC(=O)CCCc2c[nH]c3ccccc23)cc1OC
    ?	.	4.7	0.75	-2.4	i	-0.3

Compound activity as filed in PubChem.
